PABP polyA inh – PABP poly(A) RNA binding inhibitors, primary screen, biochemical, fluorescence polarization, uHTS | Polyadenylate-binding protein 1 (Homo sapiens), P11940 | inhibition, % at 35 µM | actives 1% (n = 290,000) | AID 2014, 2009;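 active means 50% or more with normal probe brightness, or confirmed in later tests; inconclusive means above 50% with abnormal brightness, or retests that disagree; inactive means below 50% or failed in later tests; about a fifth of its hits are not listed in these tables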;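 further: calls also rest on retests at 20 µM and on dose response follow-up; controls were probe without protein and protein plus probe with vehicle; some compounds called inactive have numbers as strong as hits; many hits fall short of the cut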
Target sequence (P11940 whole entry, looked up): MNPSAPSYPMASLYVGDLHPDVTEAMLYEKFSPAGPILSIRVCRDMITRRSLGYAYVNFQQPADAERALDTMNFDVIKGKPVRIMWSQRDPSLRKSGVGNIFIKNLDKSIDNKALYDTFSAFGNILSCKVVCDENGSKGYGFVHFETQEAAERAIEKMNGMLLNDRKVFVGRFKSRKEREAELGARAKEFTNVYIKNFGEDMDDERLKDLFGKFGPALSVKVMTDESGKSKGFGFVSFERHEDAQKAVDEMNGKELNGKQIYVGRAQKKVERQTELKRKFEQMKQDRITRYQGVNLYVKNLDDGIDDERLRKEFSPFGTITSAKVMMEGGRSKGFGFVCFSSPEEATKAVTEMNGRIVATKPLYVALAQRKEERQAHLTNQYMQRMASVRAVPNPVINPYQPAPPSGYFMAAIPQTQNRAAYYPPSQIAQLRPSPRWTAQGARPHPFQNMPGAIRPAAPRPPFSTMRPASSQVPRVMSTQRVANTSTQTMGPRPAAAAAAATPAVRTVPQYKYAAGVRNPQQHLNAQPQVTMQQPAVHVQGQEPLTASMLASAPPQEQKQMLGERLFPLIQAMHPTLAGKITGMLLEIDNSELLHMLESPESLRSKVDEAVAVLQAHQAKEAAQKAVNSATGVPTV
eIF4H FP inh – human eIF4H binding inhibitors, primary screen, translation initiation inhibitor project, biochemical, uHTS, fluorescence polarization. eIF4H fluorescence polarization binding assay. inhibition, % at 35 µM. actives 0.94% (n = 290,000). AID 2012, 2009;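 active means 50% or more with normal probe brightness, or confirmed in later tests; inconclusive means above 50% with abnormal brightness, or retests that disagree; inactive means below 50% or failed in later tests; about a fifth of its hits are not listed in these tables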;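 further: calls also rest on retests at 20 µM and on dose response follow-up; 0% = protein and probe with vehicle and 100% = probe without protein; strong numbers were not always called active; many hits fall short of the cut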
UUG fidelity – modulators of yeast start codon fidelity, primary screen, whole organism, S. cerevisiae, single point, plate reader | S. cerevisiae UUG-firefly luciferase reporter, luminescence/redox ratio | activity score, % at 18.7 µM | actives 0.13% (n = 350,000);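 active means replicate mean at a twofold rise or more, about +100% in these data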;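 further: firefly luciferase made from a UUG start codon reports start codon fidelity; reporter light over untreated wells divided by growth signal over untreated wells; some hits fall short of that in this replicate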
HIV Env fusion – inhibitors of HIV-1 Env-driven cell-cell fusion, primary screen, HeLa-JRFL effector, CEM21 target cells, luciferase; actives 1.1% (n = 360,000); inhibition, % at 12.3 µM; AID 651610, 2012;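 active means mean replicate inhibition score of at least 50 and every replicate individually at or above 50; inconclusive means only one of the two criteria met; inactive means mean below 50 and not all replicates reaching 50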;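 further: 0% = plate neutral controls and 100% = maraviroc near 300 nM; one replicate is shown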
MT1-MMP act inh – blockers of MT1-MMP proenzyme processing, primary screen, HT1080 RFP-PRO-GFP cells, GFP/RFP fluorescence. GFP/RFP ratio change, % at 20 µM. Matrix metalloproteinase-14 (Homo sapiens), P50281. GFP/RFP ratio fluorescence, overnight; percent of plate control window, DMSO zero. actives 0.061% (n = 360,000);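 active means GFP/RFP ratio change of at least 30% with cell ATP level not reduced by more than half and red fluorescence within 50% of control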; further: strong numbers were not always called active
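Read-out: GFP/RFP fluorescence ratio; Test system: RFP-PRO-GFP reporter HT1080 cells; Compound dosing: single-point 20 µM compound, 1% DMSO; Times: overnight compound exposure at 37 °C.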
Rce1 inhib – yeast Rce1p protease inhibitors, primary screen, biochemical, fluorescence, cell-free homogeneous; CAAX prenyl protease 2 (Saccharomyces cerevisiae (strain ATCC 204508 / S288c)), Q03530; yeast membranes, quenched prenylated peptide cleavage fluorescence; calls only; actives 0.27% (n = 290,000); AID 2563, 2010;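 active means fall in fluorescence gain of 50% or more versus controls, with final raw signal at or below 3038400; inconclusive means same 50% fall but final raw signal above 3038400; inactive means fall in fluorescence gain under 50%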;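 further: plate controls were neutral control wells for no effect and wells lacking membranes for full effect; tested at 10 µM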
Target sequence (Q03530 whole entry, looked up): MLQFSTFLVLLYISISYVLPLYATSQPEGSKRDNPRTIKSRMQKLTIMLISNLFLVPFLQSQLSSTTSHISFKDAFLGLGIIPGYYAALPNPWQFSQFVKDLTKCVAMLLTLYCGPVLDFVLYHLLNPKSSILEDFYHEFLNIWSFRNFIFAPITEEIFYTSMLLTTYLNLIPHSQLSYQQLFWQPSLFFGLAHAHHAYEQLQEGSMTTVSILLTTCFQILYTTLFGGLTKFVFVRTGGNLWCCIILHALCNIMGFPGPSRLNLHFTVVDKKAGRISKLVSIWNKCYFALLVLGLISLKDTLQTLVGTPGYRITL
CSC inhib – cancer stem cell viability inhibitors, primary screen, luminescence | inhibition, % at 7.5 µM | cancer stem cell-like cells viability | actives 1.1% (n = 300,000);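 active means mean at 75% or more and at least half the replicates too; inconclusive means mean and replicates disagree; tested in HMLE shEcad cells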;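 further: 0% = median of negative and 100% = median of positive control wells; the first replicate is given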
MT1-MMP act inh RFP – recorded beside MT1-MMP act inh, whose call it bears; RFP signal change, %; measured here: RFP expression control read;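 0 = vehicle wells; hits needed this value within 50% of zero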
An asterisk follows results filed as active; i = inactive; ? = inconclusive; / = no result given; & = joins results of further samples.

SMILES	PABP polyA inh	eIF4H FP inh	UUG fidelity	HIV Env fusion	MT1-MMP act inh	MT1-MMP act inh RFP	Rce1 inhib	CSC inhib
CCN(CC)CC(O)Cn1c(-c2ccccc2Cl)nc2ccccc21 (stereo not drawn)	-7	-7	-17	-9	-1	0	i	-14
Cc1ccc(S(=O)(=O)N2CCCCC2C(=O)Nc2nncs2)cc1 (stereo not drawn)	-1	-2	-25	6	-1	0	i	-16
COc1ccc(NC(=O)OC(C)C)cc1	-3	-5	/	/	2	6	i	-8
Cc1nc(-c2ccccc2)sc1C(=O)Nc1ccc(S(N)(=O)=O)cc1	2	-7	-13	18	4	-6	i	-4
Cc1ccc(S(=O)(=O)N[C@H](C(=O)N2CCC(C(=O)N[C@@H](CCC(N)=O)C(=O)O)CC2)C(C)C)cc1	2	-3	-20	/	4	3	/	-10
Cc1cc(N/C=C/C(=O)c2cccc3ccccc23)no1	2	5	-10	/	-1	-1	i	8
COc1ccc(S(=O)(=O)N2CCN(C(=O)NCc3ccccc3)CC2)cc1	0	5	0	/	0	0	i	-7
COCC(=O)Nc1cc([N+](=O)[O-])ccc1C	-3	4	-8	/	1	-1	i	10
COc1ccc(NC(=O)COC(=O)CCOc2ccccc2C)cc1Cl	/	/	/	-1	5	6	i	12
CCN(CCCNc1cc2c(c(N)c1S(=O)(=O)O)C(=O)c1ccccc1C2=O)c1ccccc1	/	/	135*	0	17	21	/	/
CN(CC(=O)NCc1ccc(F)cc1)Cc1cccc(Cl)c1	-2	3	-13	22	0	-3	i	0
O=[N+]([O-])c1ccc(O)c(C=Nc2ccc3c(c2)OCCO3)c1	8	-10	/	16	3	4	i	-1
CCCCCCCCCC(=O)N[C@H](CN1CCOCC1)[C@H](O)c1ccccc1	/	/	-12	12	-1	-5	i	8
Cc1ccc(OCC(=O)Nc2cccc(S(=O)(=O)N3CCCCCC3)c2)c([N+](=O)[O-])n1	13	10	/	18	9	-11	i	0
COc1cc(NC(=O)N2CCc3nc(Nc4cc(Cl)cc(Cl)c4)ncc3C2)cc(OC)c1OC	/	/	2	5	5	-8	/	/
CCOC(=O)/C(C#N)=C/c1ccc(OC(=O)c2ccccn2)cc1	-3	1	-18	1	-7	2	i	7
C=CCNC(=O)c1sc(SC)cc1-c1ccc(Cl)cc1	-3	-11	-12	/	-7	-3	i	-5
C=C(C)C(=O)OC1(C(F)(F)F)Oc2cc(C)ccc2NC1=O (stereo not drawn)	-6	-4	-6	2	2	3	i	70
O=C(Cc1ccccc1F)Nc1ccc(S(=O)(=O)N2CCCC2)cc1	/	/	-8	-17	-2	8	/	25
CCOc1ccc(C(=O)N2CCSC2=S)cc1	5	-4	-27	-24	-7	3	i	2
Cn1cc([N+](=O)[O-])c(C(=O)Nc2ccc3c(c2)OCCO3)n1	1	-8	/	-58	2	1	i	16
CCOc1ccc(CNc2ccc3c(c2)ncn3C)cc1	1	-4	-13	-60	1	0	i	0
O=C1[C@@H]2Cc3c([nH]c4ccccc34)CN2C(=O)CN1CCCCCO	-1	-1	-8	12	-5	-1	i	12
Cc1nn(C)c(C)c1NC(=O)CSc1nc(-c2ccccc2Cl)nc2c1cnn2-c1ccccc1	6	-4	-4	-7	6	9	i	-7
Cc1ccc(C)c(S(=O)(=O)Nc2ccc(C(=O)N3CCC3)cc2)c1	/	/	-2	-19	2	-5	/	-3
C[C@H]1CN([C@@H](C)CO)C(=O)CCCn2nncc2CO[C@H]1CN(C)C(=O)Nc1ccc2c(c1)OCO2	/	/	-13&-15	3	3	7	/	/
CC(=O)N1CCN(c2ccc(S(=O)(=O)N3CCCCC3)cn2)CC1	4	-4	-13	-9	-2	-4	/	-6
O=C(NNS(=O)(=O)c1ccc(C(F)(F)F)cc1)c1cnn(-c2ccccc2)c1C(F)(F)F	2	7	/	8	1	-2	i	-20
CCCCn1c(N)c(N(CCC(C)C)C(=O)c2cc(S(=O)(=O)N3CCOCC3)ccc2F)c(=O)[nH]c1=O	/	/	10	3	-1	2	i	-3
COc1cc(/C=C/C(=O)NNc2c(F)c(F)cc(F)c2F)ccc1OC(F)F	5	-5	/	/	4	-1	i	13
O=c1c2c(O)cc(O)cc2oc2c(O)ccc(O[C@H]3O[C@@H](CO)[C@H](O)[C@@H](O)[C@@H]3O)c12	/	/	9	6	14	0	/	-1
O=C(COC(=O)c1ccccc1SCC(=O)N1CCCC1)Nc1ccccc1OC(F)F	/	/	-1	i	3	2	i	/
O=C(Nc1cccnc1Cl)c1ccc(Cl)cc1	-4	8	-8	-158	0	-6	i	-4
CCC(=O)N1CCc2cc(S(=O)(=O)N3CCc4ccccc43)ccc21	5	1	-14	-33	5	-1	i	-8
Cc1ccc(NC(=O)CSc2ncccn2)cc1S(=O)(=O)N1CCCCC1	/	/	/	2	2	-4	i	-10
COc1cc2c(cc1OC)C(c1ccccc1C)CC(=O)N2 (stereo not drawn)	0	2	-4	0	-2	-6	i	-14
COc1ccc([C@H]2CC(=O)C=C(c3cccc4c3Oc3ccccc3S4)C2)cc1OC	/	/	-22	25	-9	-16	/	31
COc1ccccc1CNC(=O)N1CCN(S(=O)(=O)c2ccc(C)cc2)CC1	14	3	-13	-6	4	4	i	5
Cc1c(C(=O)N2CCCCC2)sc(NC(=O)c2ccco2)c1C#N	-2	3	-11	/	2	1	i	-11
CCOC(=O)c1cc(C)sc1NC(=O)CSc1nccn1C	18	-6	-20	-1	0	-2	i	1
CCOCCCNC(=O)C(c1ccc(Cl)cc1)N(Cc1ccc2c(c1)OCO2)C(=O)CNC(C)=O (stereo not drawn)	4	-4	/	-13	0	3	/	10
NS(=O)(=O)c1ccc(NC(=O)CSc2nnc(-c3ccc(O)cc3)o2)cc1	1	-11	-14	-4	0	4	i	-10
N#Cc1ccc(CN(Nc2ccccc2)c2ccccc2)cc1	/	/	1	6	2	-3	/	/
COc1cc(C2CC(C(F)(F)F)n3ncc(C(=O)O)c3N2)cc(OC)c1OC (stereo not drawn)	8	4	/	-100	3	3	i	12
C[C@H](CO)N1C[C@H](C)[C@@H](CN(C)S(=O)(=O)c2ccc(C#N)cc2)OCc2cnnn2CCCC1=O	/	/	-11	25	0	5	/	/
CCn1c(CN2CCN(c3ccc(OC)cc3)CC2)nc2cc(S(=O)(=O)N(C)C)ccc21	-3	5	-20	24	3	-7	i	16
COc1ccccc1CNC(=O)C1CCN(S(=O)(=O)c2c(C)noc2C)CC1	-4	-2	22	-9	-1	2	i	-1
Cc1cc(Br)c(OCc2ccc(C(=O)N/N=C3\CC4CC=CC34)cc2)c(Br)c1 (stereo not drawn)	-1	5	/	-114	-3	-1	i	15
Cc1cccc(CN2CCN(C3CN(Cc4cn(Cc5ccccc5C(F)(F)F)nn4)S(=O)(=O)C3)CC2)c1 (stereo not drawn)	/	/	18	12	4	-6	/	/
C/C(=N\OC(=O)Nc1ccccc1)c1ccc(C)cc1	/	/	/	-52	-1	1	i	-4
CC(OC(=O)c1ccccc1N1C(=O)C2C3CCC(C3)C2C1=O)C(=O)c1ccccc1 (stereo not drawn)	-4	-1	2	-23	-3	-2	i	-8
O=C(Nc1cccc2cccnc12)c1ccc(Cl)cc1	-3	0	-25	-18	0	1	i	/
O=[N+]([O-])c1ccc(Nc2nccc(Cl)n2)cc1	/	/	6	5	-2	-4	i	1
Nn1cnc2c([nH]c3ccccc32)c1=O	3	6	/	-7	0	2	i	/
CCOc1ccc(OC(=O)NC(c2ccccc2)C(Cl)(Cl)Cl)cc1 (stereo not drawn)	0	-2	-8	-49	8	8	i	1
CCOC(=O)/C(=C\c1ccccc1)NC(=O)c1ccccc1	3	0	/	3	2	0	i	-10
COc1ccc(OC)c(NC(=O)CSc2nnc(CCCO)n2-c2ccccc2)c1	-3	-8	-14	7	0	-1	i	-2
CCn1c(CNC(=O)c2ccco2)nnc1SCC(=O)Nc1cc(C)c(C)cc1Br	-5	-2	-19	-22	-2	2	i	-6
Cc1ccc(CN2CCCC(CO)(Cc3ccccc3C)C2)s1 (stereo not drawn)	-4	-6	-6	1	-2	1	i	8
C=C(C)c1cccc(C(C)(C)NC(=O)N2CCN(C(=O)OCC)CC2)c1	/	/	9	14	1	-1	/	/

The results go on:
SMILES	PABP polyA inh	eIF4H FP inh	UUG fidelity	HIV Env fusion	MT1-MMP act inh	MT1-MMP act inh RFP	Rce1 inhib	CSC inhib
CN(CC(=O)Nc1cccc(F)c1)C(=O)c1cc(=O)[nH]c2ccccc12	/	/	-12	/	1	3	/	-15
COc1ccc(CNC(=O)CC[C@H]2O[C@@H](n3cc(C)c(=O)[nH]c3=O)C[C@@H]2O)cc1	/	/	-10	23	4	1	/	/
CCOc1ccc(C2C(C(=O)c3ccc(C)o3)=C(O)C(=O)N2c2nc(C)c(C(=O)OC)s2)cc1 (stereo not drawn)	-13	2	-15	5	-6	2	i	12
CCCN1C(=S)SC(C)(C)C1/[N+]([O-])=C/c1cccnc1 (stereo not drawn)	8	3	-16	-56	-2	-9	i	-3
CCC1C(O)=C(c2ccccn2)C(=N)N1c1ccccc1 (stereo not drawn)	8	-4	-3	/	-2	5	i	/
CCc1nnc(SCC(=O)Nc2ccc(C(C)=O)cc2)nc1CC	18	12	-15	/	2	5	i	-7
Cc1cc(C)c(S(=O)(=O)Nc2nnc(C)s2)c(C)c1	4	-4	2	/	0	1	i	0
CC(C)(C)NC(=O)Cn1cnc([N+](=O)[O-])n1	7	-8	-24	/	1	2	i	-25
COc1cc(/C=C/C(=O)O)cc(S(=O)(=O)Nc2ccc3nc(C)sc3c2)c1OC	-8	2	-15	-4	3	6	i	-3
N#Cc1cc2cc3ccccc3nc2n2c(=O)c3ccccc3nc12	-5	?	/	2	-53	11	i	1
Cc1sc(NC(=O)C2CCCCC2C(=O)O)c(C(N)=O)c1-c1ccccc1 (stereo not drawn)	5	-5	-5	/	-4	-5	i	15
CCOC(=O)c1c(S(=O)(=O)NCC(=O)N2CCN(c3ccc(F)cc3)CC2)c(C)n(C)c1C	0	-9	1	2	-2	-1	i	6
Cc1c(C(=O)NC2=NCCS2)oc2ccccc12	-4	-3	-26	/	11	-2	i	-4
COCCNC(=S)N(Cc1cccnc1)Cc1ccc(OC)c(OC)c1	-3	10	-11	-9	3	-1	i	-8
Cc1ccc(Cn2c(Sc3nccc(C)n3)nc3c2c(=O)[nH]c(=O)n3C)cc1	-6	-6	-15	-68	-6	0	i	5
Cc1cc(C)cc(NC(=O)C2CCCN2C(=O)Oc2ccccc2)c1 (stereo not drawn)	-9	-2	9	/	4	1	i	-8
CCC(C)NC(=O)c1c(C)cc(=O)oc1C (stereo not drawn)	-8	0	/	-20	-1	2	i	-8
O=C(CN1CCc2ccccc21)NCc1ccc2c(c1)OCO2	-6	5	/	2	-3	-2	i	7

Only part of the results is shown. The share of hits here may be higher or lower than overall.
